High-throughput results deposited in PubChem BioAssay by Broad Institute.
rRNA inh HTS: reduced GFP signal of wild-type E. coli, primary screen, bacterial rRNA inhibitor project, GFP/RFP fluorescence, OD600, single point; 1.6% of 350,000 active; GFP signal change (wild-type ribosome), % (no concentration beside the values); AID 720706, 2013; E. coli WT GFP vs humanized-ribosome RFP mutants, 24 h; hits give low values; DMSO median 0, no signal -100;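 active = significant combined selectivity score with lowered wild-type GFP, culture density cut under 30%, mutant RFP and density less affected; inactive = any of these conditions unmet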; note: one replicate is shown; some compounds called inactive have numbers as strong as hits
rRNA inh HTS OD600: further read-out of rRNA inh HTS, marked with its call; OD600 change, %; measured here: OD600 growth;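 optical density of the mix in the first replicate; 0 = DMSO median and -100 = no signal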
rRNA inh HTS RFP: further read-out of rRNA inh HTS, marked with its call; RFP signal change, %; measured here: RFP humanized mutant strains;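 first replicate; 0 = DMSO median and -100 = no signal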
Active calls of the source: *; & = joins results of further samples.

SMILES	rRNA inh HTS	rRNA inh HTS OD600	rRNA inh HTS RFP
COc1ccc2c3c(n(C)c2c1)[C@H](CO)NCC31CCN(Cc2cc(-c3ccccc3)on2)CC1	1	15	4.8
CO[C@@H]1CN(C)C(=O)c2cc(NC(=O)NC3CCCCC3)ccc2OC[C@@H](C)N(C)C[C@@H]1C	-1	-6	1.5
COc1ccc(-c2cnc3c(c2)C(=O)N([C@H](C)CO)C[C@H](C)[C@@H](CN(C)C(=O)C2CC2)O3)cc1	2	14	-2.7
O=C(c1ccncc1)N1CC(=O)N2[C@H](C1)[C@H](c1ccc(-c3ccccc3)cc1)[C@@H]2CO	4	8	3.1
C[C@@H]1CN([C@H](C)CO)C(=O)c2ccccc2-c2ccccc2CO[C@@H]1CN(C)Cc1ccncc1	-2	-3	-0.3
CO[C@H]1CN(C)C(=O)c2cc(NC(=O)Nc3cccc(Cl)c3)ccc2OC[C@H](C)N(C(=O)Nc2c(C)noc2C)C[C@H]1C	-3	-23	-1.1
COc1ccc(S(=O)(=O)Nc2ccc3c(c2)C(=O)N(C)C[C@H](OC)[C@@H](C)CN[C@H](C)CO3)cc1	3	11	-1.0
C/C=C/c1ccc([C@@H]2[C@H](CN(C)S(=O)(=O)c3ccccc3)N[C@@H]2CO)cc1	0	4	3.7
Cc1noc(C)c1NC(=O)Nc1ccc2c(c1)C(=O)N([C@@H](C)CO)C[C@H](C)[C@@H](CN(C)Cc1ccccc1)OCCCC[C@@H](C)O2	6	0	-0.3
O=C(Nc1ccccc1)N1CC(=O)N2[C@H](C1)[C@@H](c1ccc(C#Cc3cccnc3)cc1)[C@@H]2CO	-6	18	0.2
C[C@@H]1CN([C@H](C)CO)C(=O)c2cc(NS(=O)(=O)c3cn(C)cn3)ccc2O[C@@H]1CN(C)C(=O)Nc1ccc(F)cc1	-2	6	-1.5
CCCC#Cc1ccc2c(c1)O[C@@H](CN(C)S(=O)(=O)c1cccc(OC)c1)[C@@H](C)CN([C@H](C)CO)S2(=O)=O	-1	5	-4.4

The closing 2 records of the part above are carried over, then new ones follow.
SMILES	rRNA inh HTS	rRNA inh HTS OD600	rRNA inh HTS RFP
C[C@@H]1CN([C@H](C)CO)C(=O)c2cc(NS(=O)(=O)c3cn(C)cn3)ccc2O[C@@H]1CN(C)C(=O)Nc1ccc(F)cc1	-2	6	-1.5
CCCC#Cc1ccc2c(c1)O[C@@H](CN(C)S(=O)(=O)c1cccc(OC)c1)[C@@H](C)CN([C@H](C)CO)S2(=O)=O	-1	5	-4.4
CN(C)CC(=O)N[C@H]1CC[C@H](CC(=O)O)O[C@H]1CO	1	3	-0.2
O=C(Nc1cc(F)ccc1F)N1CC(=O)N2[C@H](C1)[C@H](c1ccc(-c3cccnc3)cc1)[C@@H]2CO	3	10	1.7
COc1ccc2c3c(n(C)c2c1)[C@H](CO)N(C)CC31CN(C(=O)C2CCC2)C1	4	-2	1.0
COCC#Cc1cnc2c(c1)C(=O)N([C@@H](C)CO)C[C@@H](C)[C@H](CN(C)Cc1ccccc1F)O2	2	3	1.4
C/C=C/c1ccc([C@H]2[C@@H](CO)N(C(=O)COC)[C@H]2CNC(=O)C2CC2)cc1	0	1	-3.0
COc1cccc(S(=O)(=O)N2[C@@H]3CNC[C@H]2C3c2ccc(-c3ccccc3F)cc2)c1 (stereo partly drawn)	5	-6	0.5
O=C1N[C@H](Cc2ccccc2)COCc2cn(nn2)CC[C@@H]1Cc1ccc(Cl)cc1	-2	-17	-0.2
Cc1ccc(S(=O)(=O)N(C)C[C@H]2Oc3ccc(NS(=O)(=O)c4cn(C)cn4)cc3CC(=O)N([C@H](C)CO)C[C@H]2C)cc1	0	-3	-0.3
O=C(c1cnccn1)N1CC(=O)N2[C@@H](CO)[C@@H](c3ccc(C#CC4CCCC4)cc3)[C@@H]2C1	0	4	3.2
C[C@H](CO)N1C[C@H](C)[C@H](CN(C)C(=O)NC2CCCC2)Oc2ncc(-c3ccncc3)cc2C1=O	1	2	-2.4
CCc1nc(N2[C@H](CO)[C@@H](c3ccccc3-c3ccc(F)cc3)[C@@H]2C#N)sc1C	-15	-32	-6.1
CC(=O)NC[C@H]1[C@@H](c2ccc(C#CC(C)C)cc2)[C@@H](CO)N1C(=O)C1CC1	1	1	0.1
CCCC#Cc1ccc([C@@H]2[C@H]3CN(C(=O)Nc4ccccc4F)CC(=O)N3[C@H]2CO)cc1	-44	-60	-0.9
O=C(Nc1ccccc1F)N1CC(=O)N2[C@H](CO)[C@H](c3ccc(C#CC4CCCC4)cc3)[C@H]2C1	-14	-57	30
COc1ccccc1S(=O)(=O)N[C@H]1CC[C@H](CC(=O)NCc2cc(F)cc(F)c2)O[C@@H]1CO	-1	9	-2.0
COc1ccc(C#Cc2ccc([C@H]3[C@@H](CO)N4C(=O)CN(C(=O)c5cccnc5)C[C@H]34)cc2)cc1	-1	1	-1.1
COc1ccc(NC(=O)Nc2ccc3c(c2)C(=O)N(C)C[C@H](OC)[C@H](C)CN[C@@H](C)CO3)cc1	-2	3	-0.9
COc1ccc2c3c([nH]c2c1)[C@H](CO)N(C(=O)C1CCOCC1)CC31CCN(Cc2cccc(F)c2)CC1	1	2	-0.9
COc1ccc(NC(=O)N2[C@@H]3CNC[C@H]2C3c2ccc(-c3ccccc3)cc2)cc1 (stereo partly drawn)	-11&-6	-1&-7	0.7&1.8
O=C(C[C@H]1C=C[C@H](NC(=O)C2CCOCC2)[C@@H](CO)O1)Nc1ccccc1	2	0	0.5
CNC[C@H]1Oc2c(NC(=O)c3nc4ccccc4s3)cccc2C(=O)N([C@H](C)CO)C[C@@H]1C	-2	14	0.8
Cc1ccc(S(=O)(=O)Nc2ccc3c(c2)C(=O)N([C@@H](C)CO)C[C@@H](C)[C@@H](CN(C)C(=O)c2ccccc2)OCCCC[C@H](C)O3)cc1	0	-9	-0.8
CO[C@H]1CN(C)C(=O)c2cc(NC(=O)NC(C)C)ccc2OC[C@@H](C)N(C(=O)CN(C)C)C[C@H]1C	1	0	-0.7
CC=Cc1ccc2n(c1=O)C[C@H]1[C@H](CO)[C@@H](C(=O)NC3CCCC3)N(CCC)[C@@H]21 (mixture of isomers)	1	-4	1.5
CO[C@@H]1CN(C)C(=O)c2ccc(NC(=O)Nc3cccc(F)c3)cc2OC[C@@H](C)N(C(=O)C2CC2)C[C@@H]1C	-6	-2	3.8
CC(C)NC(=O)N1[C@@H]2CNC[C@H]1C2c1ccc(-c2cccc(C#N)c2)cc1 (stereo partly drawn)	-1&1	19&15	-5.0&-1.9
O=C(Cc1ccccc1)N1CC(=O)N2[C@H](CO)[C@H](c3ccc(C#Cc4ccccc4)cc3)[C@@H]2C1	-24	-63	16
CC(C)NC(=O)N(C)C[C@@H]1OCCCC[C@H](C)Oc2ccc(NC(=O)NC3CCCCC3)cc2C(=O)N([C@@H](C)CO)C[C@H]1C	-3	-11	-4.5
O=C(C1CCC1)N1CC(=O)N2[C@@H](CO)[C@@H](c3ccc(C4=CCCCC4)cc3)[C@@H]2C1	-5	-38	2.7
COc1ccccc1-c1cn(CC[C@H]2CC[C@@H](NC(=O)C3CCCC3)[C@H](CO)O2)nn1	0	-6	3.2
CN(C[C@@H]1N[C@H](CO)[C@@H]1c1ccc(-c2cccc(F)c2)cc1)C(=O)CC1CC1	-7	-9	4.3
C/C=C/c1ccc([C@@H]2[C@H](CO)N3C(=O)CN(C(=O)c4ccncc4)C[C@@H]23)cc1	4	6	-3.3
C[C@H](CO)N1C[C@H](C)[C@@H](CN(C)C(=O)c2ccc3c(c2)OCO3)Oc2cc(-c3ccccc3)ccc2S1(=O)=O	-12	-19	-1.2
O=C(C[C@H]1CC[C@H]2[C@@H](COC[C@H](O)CN2Cc2cc(F)ccc2F)O1)NCc1ccc(F)cc1	-4	-4	-11

Of the compounds above, 14 have a halogen:
SMILES	rRNA inh HTS	rRNA inh HTS OD600	rRNA inh HTS RFP
CO[C@H]1CN(C)C(=O)c2cc(NC(=O)Nc3cccc(Cl)c3)ccc2OC[C@H](C)N(C(=O)Nc2c(C)noc2C)C[C@H]1C	-3	-23	-1.1
C[C@@H]1CN([C@H](C)CO)C(=O)c2cc(NS(=O)(=O)c3cn(C)cn3)ccc2O[C@@H]1CN(C)C(=O)Nc1ccc(F)cc1	-2	6	-1.5
O=C(Nc1cc(F)ccc1F)N1CC(=O)N2[C@H](C1)[C@H](c1ccc(-c3cccnc3)cc1)[C@@H]2CO	3	10	1.7
COCC#Cc1cnc2c(c1)C(=O)N([C@@H](C)CO)C[C@@H](C)[C@H](CN(C)Cc1ccccc1F)O2	2	3	1.4
COc1cccc(S(=O)(=O)N2[C@@H]3CNC[C@H]2C3c2ccc(-c3ccccc3F)cc2)c1 (stereo partly drawn)	5	-6	0.5
O=C1N[C@H](Cc2ccccc2)COCc2cn(nn2)CC[C@@H]1Cc1ccc(Cl)cc1	-2	-17	-0.2
CCc1nc(N2[C@H](CO)[C@@H](c3ccccc3-c3ccc(F)cc3)[C@@H]2C#N)sc1C	-15	-32	-6.1
CCCC#Cc1ccc([C@@H]2[C@H]3CN(C(=O)Nc4ccccc4F)CC(=O)N3[C@H]2CO)cc1	-44	-60	-0.9
O=C(Nc1ccccc1F)N1CC(=O)N2[C@H](CO)[C@H](c3ccc(C#CC4CCCC4)cc3)[C@H]2C1	-14	-57	30
COc1ccccc1S(=O)(=O)N[C@H]1CC[C@H](CC(=O)NCc2cc(F)cc(F)c2)O[C@@H]1CO	-1	9	-2.0
COc1ccc2c3c([nH]c2c1)[C@H](CO)N(C(=O)C1CCOCC1)CC31CCN(Cc2cccc(F)c2)CC1	1	2	-0.9
CO[C@@H]1CN(C)C(=O)c2ccc(NC(=O)Nc3cccc(F)c3)cc2OC[C@@H](C)N(C(=O)C2CC2)C[C@@H]1C	-6	-2	3.8
CN(C[C@@H]1N[C@H](CO)[C@@H]1c1ccc(-c2cccc(F)c2)cc1)C(=O)CC1CC1	-7	-9	4.3
O=C(C[C@H]1CC[C@H]2[C@@H](COC[C@H](O)CN2Cc2cc(F)ccc2F)O1)NCc1ccc(F)cc1	-4	-4	-11

Not all compounds are listed; rates above refer to the full screens.
